Source: PubChem BioAssay
Menin MLL FP FL: qHTS Assay for Inhibitors Targeting the Menin-MLL Interaction in MLL Related Leukemias: Competition With Fluorescein Labeled MLL-derived Peptide. AID 1766, 2009. 290,000 tested, under 10 active. Fluorescence polarization, fluorescein-MLL peptide displacement from menin. FP activity change, % at 61.4 µM; inconclusive = falling polarisation curve, or a change in total fluorescence; inactive = total fluorescence flat and polarisation flat or rising; no compound was filed as active; the % refers to the polarisation; negative = inhibition;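 also: % of control where 0% means no effect; inhibitors lower the polarisation; unlabelled MLL peptide was the positive control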
Sfp inh: qHTS Assay for Inhibitors of Bacillus subtilis Sfp phosphopantetheinyl transferase (PPTase). Potency, µM, inactives show max response, negative = inhibition, hits mostly inhibitors. Biochemical Sfp PPTase activity, qHTS. 4'-phosphopantetheinyl transferase ffp (Bacillus subtilis), Q9F4F7. actives 3.5% (n = 310,000); active = well fitted inhibition curve with a large enough effect; inconclusive = small, poorly fitted or top-dose-only effect, or another doubt; inactive = no such curve, though single readings can be large or run the other way;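 also: the enzyme is Sfp with the accession as filed and its product quenches rhodamine fluorescence; potency is read from the fitted curve at half-maximal effect; 0% = enzyme reaction without inhibitor and -100% = no enzyme wells; top concentration of the series not given in the record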
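After 15 min at room temperature with compound, 15 nM Sfp received 5 uM rhodamine-CoA plus 12.5 uM BHQ-2-ybbR (50 mM Hepes pH 7.6, 10 mM MgCl2). Rate came from the fluorescence difference over 30 min, ex 525/em 598 nm.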
TRPML1 blocker: qHTS for Inhibitors of the Human Mucolipin Transient Receptor Potential 1 (TRPML1) | Mucolipin-1 (Homo sapiens), Q9GZU1 | activity change, negative = inhibition, % (concentration not given with the values) | TRPML1-inducible cells, Ca2+ dye fluorescence, FDSS; hits give low values; inhibition of EC80 agonist-evoked calcium signal | actives 0.02% (n = 390,000); in the data active means activity change below about -50%; inconclusive means about -30% to -50%; inactive means above about -30%;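 also: stimulus is agonist 54-4 at its EC80 concentration; % is scaled to controls: 0 for no effect and ±100 for the full control effect; compound concentration not given in the record; the text of the record puts the active cut at -80%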
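TRPML1-DL cells, Tet-induced overnight (~16 h, 37 °C) at 1,500 cells/well, were loaded with Ca8 no-wash dye plus quencher for 45-90 min at room temperature. Compounds were pinned during FDSS kinetic reading; agonist 54-4 at EC80 (4 uM final) then added.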
PINK1 modulator: A Quantitative High throughput Screen to Identify Chemical Modulators of PINK1 Expression; PINK1 immunofluorescence, high-content cytometry, 24 h; Potency, µM (doses to about 76.6 µM), without a hit: at the highest dose activation (PINK1 increase), usual class: activators; actives 0.2% (n = 410,000); AID 624263, 2012; active = well fitted activation curve with a large enough effect; inconclusive = small, poorly fitted or top-dose-only effect; inactive = flat fitted curve, though single readings scatter; cell line not stated here;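 also: potency is read from the fitted curve at half-maximal effect; % of control where 0% means no effect; nearly all actives have a fitted effect of over 65% in size; a mitochondrial uncoupler was the plate control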
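PINK1 protein level read as immunofluorescence by microplate cytometer in a fixed, stained stable cell line after 24 h exposure to five compound concentrations, with CCCP as control.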
TRPML1 agonist: qHTS for Agonists of the Human Mucolipin Transient Receptor Potential 1 (TRPML1); Mucolipin-1 (Homo sapiens), Q9GZU1; TRPML1-expressing cells, Ca2+ dye fluorescence, FDSS; host cell line not named in the record; reference of the full effect not given here; activation, % (test concentration not listed); actives 0.12% (n = 410,000); in the data active = activation above about 50%; inconclusive = about 30% to 50%; inactive = below about 30%; also: 0% is about no effect; the text of the record puts the active cut at 80%
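Calcium fluorescence on an FDSS kinetic reader gave the read-out. Tet-induced TRPML1-DL cells were plated overnight, dye-loaded (Ca8 with quencher, 45-90 min, room temperature, dark), then read 110 s after compound addition, and again 110 s after 4uM final 54-4 (EC80).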
ClpP mod: qHTS Assay for Activators of ClpP. ATP-dependent Clp protease proteolytic subunit (Bacillus subtilis (strain 168)), P80244. purified B. subtilis ClpP, FRET peptide cleavage, 20 min. Potency, µM (series often up to 57.5 µM), for inactives: top-dose activity change, negative = active. actives 1.9% (n = 340,000); active = well fitted falling curve with a large enough effect; inconclusive = small, poorly fitted or top-dose-only effect; inactive = no such curve, though single readings can be large or run the other way; also: potency is read from the fitted curve at half-maximal effect; the source files actives as falling curves though it sought activators and does not explain the sign; nearly all actives have a fitted effect of over 65% in size; many hits overshoot -100%
Target sequence (P80244 whole entry, looked up): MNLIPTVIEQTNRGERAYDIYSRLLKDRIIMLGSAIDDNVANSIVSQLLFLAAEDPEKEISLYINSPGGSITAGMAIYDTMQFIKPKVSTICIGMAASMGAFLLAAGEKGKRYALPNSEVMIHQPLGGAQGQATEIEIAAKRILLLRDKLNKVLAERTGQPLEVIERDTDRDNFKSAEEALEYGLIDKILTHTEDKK
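Buffer: 100 mM Tris/HCl pH8, 100 mM KCl, 0.05% low protease BSA, 2.5% glycerol, 0.01% Tween-20. ClpP 10 microg/mL final; 20 min RT; delta FRET normalized to ADEP and DMSO controls.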
TRPV1 potentiator: HTS Assay for Compounds that Act as Potentiators of the Vanilloid Receptor 1; TRPV1-expressing cells, Fluo-8 calcium influx, capsaicin EC20 potentiation; host cell line not named in the record; control for the full effect not named in the record; potentiation, % at 8.33 µM; actives 0.02% (n = 320,000); active means potentiation above 80%; inconclusive means 30% to 80%; inactive means below 30%; also: 0% is about no effect
Target sequence (Q8NER1 whole entry, looked up): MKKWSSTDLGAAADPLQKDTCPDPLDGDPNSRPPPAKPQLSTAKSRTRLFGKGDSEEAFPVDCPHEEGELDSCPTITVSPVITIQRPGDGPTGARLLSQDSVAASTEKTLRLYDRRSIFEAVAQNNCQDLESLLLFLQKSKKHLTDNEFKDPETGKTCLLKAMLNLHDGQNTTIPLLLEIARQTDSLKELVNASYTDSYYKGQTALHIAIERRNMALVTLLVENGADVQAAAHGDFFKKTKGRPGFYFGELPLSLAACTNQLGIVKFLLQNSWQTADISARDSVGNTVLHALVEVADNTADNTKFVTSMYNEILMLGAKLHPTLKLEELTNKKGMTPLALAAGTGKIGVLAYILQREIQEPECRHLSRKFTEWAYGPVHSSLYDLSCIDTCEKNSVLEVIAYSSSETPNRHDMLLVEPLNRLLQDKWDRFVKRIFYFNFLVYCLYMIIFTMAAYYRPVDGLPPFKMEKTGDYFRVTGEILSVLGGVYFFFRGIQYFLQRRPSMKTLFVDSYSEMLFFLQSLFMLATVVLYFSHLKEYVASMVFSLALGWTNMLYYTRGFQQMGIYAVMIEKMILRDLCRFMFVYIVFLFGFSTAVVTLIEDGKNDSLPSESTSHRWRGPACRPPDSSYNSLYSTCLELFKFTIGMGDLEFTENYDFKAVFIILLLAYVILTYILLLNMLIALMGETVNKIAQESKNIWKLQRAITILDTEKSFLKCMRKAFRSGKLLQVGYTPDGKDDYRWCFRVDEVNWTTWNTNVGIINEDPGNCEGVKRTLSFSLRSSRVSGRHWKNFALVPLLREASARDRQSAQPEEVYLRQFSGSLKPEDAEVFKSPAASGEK
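Cells expressing TRPV1 were dye-loaded with Fluo-8 and read kinetically: 10 s baseline, 3 min after compound (agonist portion), then 2 min after EC20 capsaicin (allosteric enhancer portion). Calcium-bound dye fluorescence at 480/520 nm.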
Numbers without * were called inactive; ? = inconclusive; nt = no result given; [ ] = dose if it differs, or a comment.

SMILES	Menin MLL FP FL	Sfp inh	TRPML1 blocker	PINK1 modulator	TRPML1 agonist	ClpP mod	TRPV1 potentiator
C[C@H](CO)N1C[C@H](C)[C@@H](CN(C)Cc2ccc(Cl)c(Cl)c2)Oc2c(NS(=O)(=O)c3cccs3)cccc2C1=O	nt	nt	-6.3	0.5%	-0.2	-1.6%	nt
C#CCOCCOCCOCCNc1nc(N2CCN(C(=O)[C@H](CCC(=O)O)n3cc(CN)nn3)CC2)nc(N2CCN(C(=O)[C@H](CCC(=O)O)n3cc([C@@H](N)[C@H](C)CC)nn3)CC2)n1	nt	nt	-5.0	-1.0%	-0.3	1.8%	nt
Cc1cccc(NC(=O)CCSc2nncn2C)c1	0.6	13.2%	-1.3	-3.6%[38.3 µM]	0.3	-1.4%	9.8
COC(=O)C1=C(N)Oc2cc(C)n(CCN3CCOCC3)c(=O)c2C1c1cccnc1 (stereo not drawn)	3.1	-2.9%	5.4	-1.3%	-0.8	-0.7%	5.1
COc1cccc(C(O)C2OC(=O)c3ccccc32)c1OC (stereo not drawn)	nt	nt	-13.7	-2.0%	-0.7	0.1%	nt
CC(C)N(CC(N)=O)c1ncnc2sc(-c3ccccc3)cc12	2.3	19.6%	-10.4	-0.3%	-1.4	-2.1%	-9.1
CCN(CC)c1ccc(NC(=O)C2COc3ccc(OC)cc3C2)c(C)c1 (stereo not drawn)	nt	nt	11.0	24.5%	1.6	-1.7%	nt
CC1CCCN(S(=O)(=O)c2ccc(C(=O)Nc3nnc(-c4ccccc4Cl)o3)cc2)C1 (stereo not drawn)	6.0	9.5%	0.0	2.4%	-0.6	-1.5%	-22.2
O=C(NN1C(=O)C2C3C=CC(C4CC34)C2C1=O)c1ccc(Cl)c(Cl)c1 (stereo not drawn)	3.5	-5.9%	-8.3	1.4%	0.5	-3.2%	-7.3
CC1=C(C#N)C(c2ccc(O)cc2)C2=C(CCCC2=O)N1 (stereo not drawn)	0.0	12.8%	-18.6	0.2%	0.4	nt	-3.0
O=C(COc1ccc2ccc(=O)oc2c1)NC1CCCC1	nt	17.3%	4.8	0.1%	0.5	4.0%	8.2
COc1ccc(NC(=O)C(C)N2c3cccc4cccc(c34)S2(=O)=O)cc1OC (stereo not drawn)	-3.8	0.6%	4.5	-5.4%[38.3 µM]	0.1	-1.3%	-6.7
CCOC(=O)c1ccccc1NC(=O)Cn1c(=O)n(Cc2nc(C)no2)c(=O)c2ccccc21	nt	nt	1.8	0.4%	-0.5	-27.9%	nt
Cc1cc(NC(=O)CCC(=O)N(c2ccc(F)cc2)C2(C(=O)NC3CCCCC3)CCCC2)no1	2.9	2.2%	8.3	-1.6%	-0.3	1.2%	?
CCCCc1nn2c(=O)cc(COC(=O)c3ccc(NC(=O)c4cccs4)cc3)nc2s1	nt	nt	-5.1	-0.5%	0.8	-7.2%	nt
C/C(=N/N=C1/NC(=O)CC(C(=O)O)S1)c1ccccc1 (stereo not drawn)	-5.2	-3.2%	3.0	1.7%	-0.6	1.0%	16.8
CC(C)OC(=O)c1c2nc3ccccc3nc2n2c1[nH]c(=O)c1ccccc12	?	14.1%	nt	nt	nt	nt	9.4
O=C(O)CCC(=O)NNC(=O)CCC1CCCCC1	6.6	29.6%	-15.2	2.3%	-0.2	-1.4%	15.7
O=C(C1=C[C@H](C2CCCCC2)C[C@H](OCc2ccc(CO)cc2)O1)N1CCN(Cc2ccc3c(c2)OCO3)CC1	6.5	-3.2%	-4.5	-2.0%	3.2	-1.4%	-7.4
COc1ccccc1NC(=O)c1cnc(Nc2ccccc2OC)c2ccccc12	1.9	14.6%	-12.0	5.7%	1.3	?	4.0
COCCn1c(=O)cnc2cnc(Nc3cccc(OC)c3)nc21	-10.7	15.8%	nt	-1.5%	nt	nt	nt
CC(=O)c1ccc(N=C2SCCCN2C(=O)C2CCCC2)cc1	-3.9	7.2%	22.5	3.7%	-0.9	nt	-2.5
NC(=O)COc1c(-c2ccccc2)oc2ccccc2c1=O	3.9	9.6%	15.4	-0.6%[38.3 µM]	-0.2	-14.7%	0.7
CCOc1cc(S(=O)(=O)N2CCCCC2)ccc1F	1.4	-5.8%	10.5	9.9%[38.3 µM]	-0.5	7.1%	3.5
O=S(=O)(NCCC1=CCCCC1)c1ccccc1Cl	nt	nt	-8.1	7.0%	1.0	0.4%	17.4
SMILES	Menin MLL FP FL	Sfp inh	TRPML1 blocker	PINK1 modulator	TRPML1 agonist	ClpP mod	TRPV1 potentiator
O=[N+]([O-])c1cccc(COc2cccc(CO)c2)c1	nt	nt	32.9	-0.2%	2.2	-0.3%	nt
CN1CCN(C(=S)Nc2ccc([N+](=O)[O-])cc2)CC1	3.2	89.1µM*	-13.8	-0.3%	-0.2	0.9%	7.3
COc1ccc(Cn2c(=O)c3cccnc3n(CC(=O)Nc3ccc(C)c(F)c3)c2=O)cc1	nt	nt	-0.3	-1.2%	0.6	-7.7%	nt
CC(=O)N1CCc2ccc([N+](=O)[O-])cc21	nt	nt	-0.1	0.1%	-0.5	nt	nt
CCCN1CCC(=O)N([C@H](CSc2ccc(C)cc2)CC(C)C)CC1	2.3	-7.6%	-12.9	4.8%	-0.4	1.0%	-4.8
CCOC(=O)c1sc(NC(=O)CCN2C(=O)c3ccccc3C2=O)c(C(=O)OCC)c1C	-1.7	-1.8%	-15.0	5.4%	0.4	0.3%	0.7
COc1cccc(-n2ccnc2SCC(=O)Nc2nccs2)c1	3.5	13.6%	9.6	6.1%	0.6	28.2µM*	-1.1
COc1ccccc1N(CC(O)Cn1c(C)nc2ccccc21)S(=O)(=O)c1ccccc1 (stereo not drawn)	4.7	4.8%	8.8	2.3%	1.8	-17.8%	-5.7
O=C(Cn1cc[n+](CC(=O)c2ccccc2)c1)c1ccccc1	-10.1	12.8%	-0.9	0.6%	0.3	0.1%	-10.2
Cc1cc(NC(=O)C(C)C)ncc1NC(=O)CCc1ccccc1	-2.0	15.7%	4.2	0.6%	0.8	-2.5%	10.1
O=S(=O)(c1ccc2ncccc2c1)N1CCN(c2nc(-c3cccs3)nc3ccccc23)CC1	nt	nt	nt	1.0%	0.5	31.6µM*	nt
CC(C)CN(C(=O)COC(=O)CSc1ccc(Br)cc1)C1CCS(=O)(=O)C1 (stereo not drawn)	nt	nt	-5.6	1.9%	-0.4	-2.3%	-0.9
O=C(NCC(c1ccco1)N1CCc2ccccc21)C(=O)Nc1ccccc1 (stereo not drawn)	nt	nt	-18.0	8.7%	2.6	nt	8.7
CCCCOC(=O)n1c(=S)oc2cc(Cl)ccc21	3.7	56.2µM*	-17.5	6.0%	-0.4	0.8%	-0.6
CSc1ccc(/C=C2/C(=N)N3N=C(CC(=O)N4CCCC4)SC3=NC2=O)cc1	nt	10.5%	44.3	-1.0%	-0.1	-2.7%	-25.2
O=C(NCC1CCCO1)C(=O)N/N=C\c1ccc2c(c1)OCO2 (stereo not drawn)	nt	9.8%	-15.8	0.3%	-0.4	-1.2%	4.3
O=c1cc(CSc2nnc(-c3ccco3)o2)c2ccccc2[nH]1	2.0	?	-13.8	-1.7%	0.6	0.4%	2.7
COc1ccc(S(=O)(=O)N(C)c2ccc(C(=O)NCCC(C)C)cc2)cc1	2.6	8.5%	1.5	18.8%[38.3 µM]	0.8	1.7%	0.1
Cc1cc(=O)n2[nH]c(-c3cccc(Cl)c3)cc2n1	-4.4	13.4%	4.2	1.2%	0.8	4.6%	11.6
O=c1[nH]c2ccccc2c2cn(-c3ccccc3)nc12	-5.6	-1.3%	-1.8	-0.8%	-1.4	-2.5%	3.4
O=C(NC(Cc1c[nH]c2ccccc12)C(=O)O)c1ccco1 (stereo not drawn)	4.7	-11.6%	2.5	-0.2%	-0.8	-0.5%	25.9
COC(=O)c1ccc(NC(=O)NC2CCCCC2)cc1	0.6	11.6%	-8.7	11.2%	1.1	-3.1%	-1.6
O=C(CSc1n[nH]c(=O)n1C1CC1)c1ccc2c(c1)OCCO2	5.1	-4.2%	-6.6	0.6%	1.1	-0.1%	-20.8
COc1ccc(NS(=O)(=O)c2cccc(C(=O)NNC(=O)CNC(=O)c3ccccc3Cl)c2)cc1	nt	nt	-18.2	2.2%	0.5	-1.7%	nt
CCOC(=O)c1cc(-c2ccc(F)cc2)n(CC(=O)NCc2ccccn2)c1C	-2.5	5.4%	-11.0	2.1%	1.2	0.0%	-1.8
SMILES	Menin MLL FP FL	Sfp inh	TRPML1 blocker	PINK1 modulator	TRPML1 agonist	ClpP mod	TRPV1 potentiator
Cc1cccc(C)c1NC(=O)CSc1nnc(C2CCCCC2)o1	5.8	12.1%	-6.3	0.0%	-0.1	nt	1.1
N[C@@H](Cc1ccc(F)cc1)C(=O)O	2.1	nt	-5.6	0.6%	-0.5	1.0%	nt
COc1ccc(Cl)cc1NC(=O)CN(C)CC(=O)Nc1ccc2c(c1)OCO2	nt	nt	-12.6	1.9%	-0.3	-2.0%	-23.2
Cc1cccc(C(=O)NNC(=O)c2c(O)c3ccccc3n(C)c2=O)c1	-5.5	0.3%	0.7	?	0.0	nt	11.3
CCCn1c(SCC(=O)Nc2cccc(Cl)c2Cl)n[nH]c1=O	-1.5	10.7%	5.0	1.2%	-1.3	-0.6%	6.3
CC1CCC(NC(=O)COC(=O)c2cccnc2Cl)CC1 (stereo not drawn)	nt	nt	-8.0	-0.9%	0.1	1.2%	8.3
CC1(C(=O)NS(=O)(=O)C2CC2)CCN(C(=O)c2ccccc2OC(F)(F)F)C1 (stereo not drawn)	nt	nt	40.1	-1.0%	-0.8	-2.7%	nt
Cc1ccc(C)c(N2CCN(C(=O)c3ccc4nsnc4c3)CC2)c1	-1.9	-1.2%	-17.7	2.7%	-0.2	1.1%	-7.5
O=C(COC(=O)C1(c2ccccc2F)CCCC1)Nc1ncc(C(F)(F)F)cc1Cl	7.3	24.3%	-1.5	7.9%	?	1.0%	-10.5
